# KCNQ2 pot = potentiators of rat KCNQ2 potassium channel; 310,000 tested, 0.54% active; CHO-K1 KCNQ2, FluxOR thallium flux fluorescence; stronger effect = higher value; B-score at 10 µM;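 active means fluorescence ratio B-score at least 3 SD of library B-scores, with initial fluorescence B-score within 3 SD, cut at about 5.3 in these data; same plate scores as AID 2156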;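 further: B-score of peak minus minimum over baseline fluorescence ratio after K+ and Tl+ stimulus; positive B-score means potentiation of KCNQ2 with more thallium influx and brighter signal; only the inactives scoring about 0 or higher are listed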
# Target sequence (O88943 whole entry, looked up): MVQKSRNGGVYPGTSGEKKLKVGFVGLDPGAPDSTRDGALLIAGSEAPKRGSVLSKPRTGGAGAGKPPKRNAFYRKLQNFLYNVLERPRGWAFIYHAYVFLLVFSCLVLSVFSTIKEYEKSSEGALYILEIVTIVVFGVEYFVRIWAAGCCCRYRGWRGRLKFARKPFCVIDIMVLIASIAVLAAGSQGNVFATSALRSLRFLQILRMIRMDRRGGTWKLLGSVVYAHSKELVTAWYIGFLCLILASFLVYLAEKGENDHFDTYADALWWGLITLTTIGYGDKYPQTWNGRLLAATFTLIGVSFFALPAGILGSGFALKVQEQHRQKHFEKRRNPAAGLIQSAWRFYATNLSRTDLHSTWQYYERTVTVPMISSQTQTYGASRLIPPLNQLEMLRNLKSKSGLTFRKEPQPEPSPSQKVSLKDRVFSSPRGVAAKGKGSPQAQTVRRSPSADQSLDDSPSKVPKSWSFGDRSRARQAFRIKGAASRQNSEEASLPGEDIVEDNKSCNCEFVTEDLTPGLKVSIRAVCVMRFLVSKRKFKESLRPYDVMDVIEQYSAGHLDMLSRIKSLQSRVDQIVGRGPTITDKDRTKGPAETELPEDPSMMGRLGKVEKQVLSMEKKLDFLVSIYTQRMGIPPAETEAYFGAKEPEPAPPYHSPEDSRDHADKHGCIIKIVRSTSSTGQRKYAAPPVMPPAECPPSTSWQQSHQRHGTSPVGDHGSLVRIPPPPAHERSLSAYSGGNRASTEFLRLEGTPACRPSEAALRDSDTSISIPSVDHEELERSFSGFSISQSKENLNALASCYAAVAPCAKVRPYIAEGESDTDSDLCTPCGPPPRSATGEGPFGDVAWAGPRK
# KCNQ2 pot baseline = second read-out of KCNQ2 pot, no call of its own (marks repeat the call); B-score; compound at 10 µM; measured here: initial fluorescence intensity artifact check;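 brightness before thallium and not channel activity; 0 = typical well and far values either way flag optical interference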
# * marks the source's active call; other numbers are inactive results. Only part of the results is shown; rates above refer to the full screens.
# Values in the order: KCNQ2 pot, KCNQ2 pot baseline
- N/C(=N\OC(=O)N1CCOCC1)c1ccc(Cl)cc1
 : 0.78, 0.51
- CCOc1ccc(NS(=O)(=O)c2ccc(NC(=S)NC(C)=O)cc2)cc1
 : 0.61, 0.13
- O=C(/C=C/c1cccc([N+](=O)[O-])c1)NCC1CCCO1 (stereo not given)
 : 0.01, 0.09
- O=C(NCc1ccccc1)c1ccc2nc(N3CCOCC3)sc2c1
 : 0.36, -1.25
- Cc1ccc(S(=O)(=O)N(C(=O)c2ccncc2)c2ccc3oc4c(c3c2)CCCC4)cc1[N+](=O)[O-]
 : 0.49, 0.41
- Cc1c(C(=O)Nc2ccccc2)oc2c1C(=O)CC(C)(C)C2
 : 1.18, 0.22
- Cc1ncc([N+](=O)[O-])n1CC(=O)NC1CCCCC1
 : 0.96, -0.09
- CCCc1nnc(NC(=O)c2cccs2)s1
 : 0.53, -0.02
- Nc1ccc(C(=O)O)cc1S(=O)(=O)O
 : 0.16, 0.26
- Cc1cc(C)c2c(n1)sc1c(=O)n(CC(=O)c3ccccc3)cnc12
 : 0.2, 0.68
- CCOC(=O)c1[nH]c(C(=O)O)c(CCC(=O)OC)c1C
 : 0.69, 0.06
- CCOc1ccccc1N1CCN(C(=O)c2cccs2)CC1
 : 0.56, -1.27
- CC(=O)Nc1ccccc1C(=O)C(=O)Nc1cccc(C(=O)NC2CC2)c1
 : 0.03, -1.4
- Cc1cc(NC(=O)CSc2ccc3nnc(-c4cccnc4)n3n2)no1
 : 0.41, -0.7
- O=C(Nc1ccccc1)Nc1nnc(-c2cccs2)s1
 : 2.49, -0.07
- CCOC(=O)N1CCN(C(=O)c2ccc(C#CC3(O)CCCCC3)cc2)CC1
 : 0.68, -1.23
- O=C(Nc1ncc(Br)s1)C(Cc1ccccc1)n1cccc1 (stereo not given)
 : 7.31*, 0.94*
- CCCNC(=O)Nc1cccc(C(=O)OC)c1
 : 0.99, 0.07
- CCn1c(SCC(=O)c2ccc(Cl)cc2)nnc1-c1cccs1
 : 0.11, -1.35
- COc1ccc(C(C)=O)cc1COC(=O)CNC(=O)c1ccccc1F
 : 0.57, -3.09
- O=P(OC1CCS(=O)(=O)C1)(c1ccccc1)c1ccccc1 (stereo not given)
 : 2.58, 0.4
- COc1ccc(NC(=O)c2ccc(-c3nn(C)c(=O)c4ccccc34)cc2)cc1
 : 0.91, 1.02
- Cc1c(NS(C)(=O)=O)cccc1-c1nc2cccnc2s1
 : 1.62, -0.55
- CC(C)NC(=O)CN(Cc1ccc(F)cc1)C(=O)CCC(=O)Nc1ccccn1
 : 1.3, -0.76
- Cc1ccc(NC(=O)Nc2cccc(F)c2)nc1
 : 0.67, 0.99
- Cc1cc(O)cc(O[C@H]2OC(CO)[C@H](O)[C@@H](O)[C@H]2O)c1 (stereo not given in full)
 : 2.03, 0.05
- COCCCN1C(=O)/C(=C\c2ccc3c(c2)OCO3)C(C(=O)OC)=C1C
 : 0.55, 0
- Cc1ccc(S(=O)(=O)N2CCN(C(=O)COC(=O)c3ccc(Br)o3)CC2)c(C)c1
 : 3.26, -1.54
- O=C1CCCN=C(Nc2ccc(F)c(Cl)c2)S1
 : 0.23, -0.79
- CCC(C)[C@H](NC(=O)C1CC(=O)N(c2ccc3c(c2)OCO3)C1)C(=O)NC1CCCCC1 (stereo not given in full)
 : 0.02, -0.08
- Cn1sc(NC(=O)c2cccc(Cl)c2)nc1=O
 : 1.23, -2.19
- Fc1ccc(CNC(=S)NCc2ccc(F)cc2)cc1
 : 2.16, -1.02
- Cc1ccc(SCC(=O)NC(=O)Nc2ccc3c(c2)OCCO3)c(C)c1
 : 0.49, -0.2
- NC1=NC(c2ccc([N+](=O)[O-])cc2)N(c2ccc(F)cc2)C(N)=N1 (stereo not given)
 : 0.75, 0.91
- Nc1nc(NCCCN2CCOCC2)nc(Nc2cccc(F)c2)c1[N+](=O)[O-]
 : 2.33, 1.18
- O=c1c2cnn(-c3ccc(F)cc3)c2ncn1Cc1ccccc1
 : 0.04, -0.29
- C=CCNC(=O)C(=O)N/N=C/c1cccc(Br)c1
 : 0.43, 1.48
- CSc1ccccc1NC(=O)Nc1cccc2ccccc12
 : 0.1, 0.25
- NC(=O)c1ccccc1OCC(=O)Nc1ccc(Cl)c(Cl)c1
 : 0.63, 0.56
- Cc1ccccc1CNC(=O)c1ccccc1
 : 0.06, 0.35

# Sorted by formula weight (lowest first): part of the list above
# Values in the order: KCNQ2 pot, KCNQ2 pot baseline
- Cc1ccc(NC(=O)Nc2cccc(F)c2)nc1
 : 0.67, 0.99
- Fc1ccc(CNC(=S)NCc2ccc(F)cc2)cc1
 : 2.16, -1.02
- O=P(OC1CCS(=O)(=O)C1)(c1ccccc1)c1ccccc1 (stereo not given)
 : 2.58, 0.4

# The results go on:
# Values in the order: KCNQ2 pot, KCNQ2 pot baseline
- Cc1nnc(NC(=O)Cc2ccc(OCc3c(C)noc3C)cc2)s1
 : 0.04, -0.45
- Cc1ccc(N/N=C2\COC(C)(C)CC2=O)cc1
 : 1.25, -1.05
- CCOC(=O)CNC(=O)CSc1nc(NCc2ccccc2)nc(N(C)C)n1
 : 0.74, -3.24
- O=C(N/N=C/c1oc(O)c2ccccc12)c1ccccc1O
 : 0.32, -0.75
- CC(/C=N/NC(=O)c1cc(-c2cccs2)[nH]n1)=C\c1ccccc1
 : 1.2, 0.09
- CC(C)(C)C(=O)Cn1ncc(N2CCCC2)c(Br)c1=O
 : 1.19, 3.27
- CCn1c(SCc2c(Cl)cccc2Cl)nnc1-c1nn(-c2ccccc2)ccc1=O
 : 0.59, 0.26
- Cc1nnc2n1N=C(c1ccccc1)CS2
 : 0.22, -0.77
- CC(=O)Nc1ccc(-c2nn[nH]n2)cc1
 : 0.55, 0.52
- O=[N+]([O-])c1cc(C(F)(F)F)c(Cl)cc1N1CCN(CCO)CC1
 : 0.97, 0.05
- O=C(c1ccc(S(=O)(=O)Nc2cccc(C(F)(F)F)c2)cc1)N1CCOCC1
 : 1.74, -1.91
- O=C(NCc1cn2ccccc2n1)c1ccccc1
 : 1.37, -1.55
- O=C(CCN1CCOCC1)NNC(=O)Nc1cccc([N+](=O)[O-])c1
 : 1.48, -0.16
- CC(C)NC(=S)Nc1cccc2cnccc12
 : 0.04, -1.01
- Cc1cc(C)n(-c2ccc(C(=O)Nc3ccc(S(=O)(=O)NCc4ccco4)cc3)cc2)n1
 : 0.38, -0.76
- CCC(=O)c1cn(CC(=O)OC)c2ccccc12
 : 0.17, -0.79
- CCc1nnc(NC(=O)c2nc3nc(C)cc(C)n3n2)s1
 : 0.1, 2.38
- Cc1cccc(CN2CCN(CC(=O)NCc3cccs3)C2=O)c1
 : 0.04, 0.36
- CC(=O)NC(CCS(C)(=O)=O)C(=O)Nc1cccc(C(C)=O)c1 (stereo not given)
 : 1.45, -0.09
- COC(=O)c1[nH]c2ccccc2c1NC(=O)CN1CC(C)OC(C)C1 (stereo not given)
 : 0.28, 0.02
- C/C(=N\NC(=S)Nc1ccc(C)cc1)c1cc2ccccc2o1
 : 0.91, -1.37
- Cc1cccc(OCCCC(=O)Nc2ccc3c(c2)OCO3)c1
 : 0.73, 0.69
- CCCCn1c(N)c(N(CC(C)C)C(=O)C2CCN(C(=O)c3ccc(Cl)cc3)CC2)c(=O)[nH]c1=O
 : 0.55, -0.84
- COc1ccc(-c2csc(NC(=O)Nc3ccccc3)n2)cc1
 : 0.5, 0.05
- CC(C)Oc1ccccc1C1CC(=O)Nc2cc3c(cc21)OCCO3 (stereo not given)
 : 0.66, -0.39
- O=C(NNc1cc(N2CCOCC2)nc(N2CCOCC2)n1)c1ccc(Cl)c(Cl)c1
 : 3.14, 0.89
- Cc1onc(-c2ccccc2Cl)c1C(=O)NCC1CCCO1 (stereo not given)
 : 0.32, -0.44
- CCN(CC)Cc1c(C(=O)N/N=C(\C)c2ccncc2)nnn1-c1nonc1N
 : 0.49, -0.68
- COc1ccccc1/C=C1\SC(=S)N(NS(=O)(=O)c2ccc(C)cc2)C1=O
 : 3.32, 1.44
- COC(=O)C1=C(C)N(CCCC(=O)O)C(=O)NC1c1ccc([N+](=O)[O-])cc1 (stereo not given)
 : 0.65, -1.12
- COc1ccc(CCNC(=O)CNC(=O)Cn2cnc3sc(C)c(C)c3c2=O)cc1OC
 : 0.51, -1.73
- COc1ccccc1C(=O)Nc1nc2cc3c(cc2s1)OCO3
 : 0.83, 0.92
- CCOc1cc(-c2cc(-c3ccc(N)cc3)nc(N)c2C#N)ccc1O
 : 3.37, -0.07
- COc1ccc(/C=C/C(=O)O)cc1S(=O)(=O)NCc1cccnc1
 : 1.08, -0.66
- Oc1c(CN2CCOCC2)cc(COCc2ccccc2)c2cccnc12
 : 10.7*, -2.03*
- O=C(O)/C=C/C(=O)Nc1nccs1
 : 0.47, -0.64
- CCOc1nc(NCCO)nc(Nc2ccc([N+](=O)[O-])cc2)n1
 : 0.99, -1.55
- O=C(NCC1CC1)Nc1cccs1
 : 2.46, -1.36
- C=CCNC(=O)CSc1nnc(-c2ccccc2Cl)n1-c1c(C)n(C)n(-c2ccccc2)c1=O
 : 1.64, -2.53
- COc1ccc(C2Nc3ccc(Br)cc3C(c3ccccc3)N2CC(=O)O)cc1 (stereo not given)
 : 0.05, 0.05
- COc1ccc(OC)c(NC(=O)CN2C(=O)COc3ccc(S(=O)(=O)N4CCCC4)cc32)c1
 : 0.38, -0.95
- O=C(Cn1cnnn1)Nc1cccc(S(=O)(=O)N2CCCCC2)c1
 : 0.55, -1.28
- CCCC(=O)Nc1cc(C)c(NC(=O)Cc2ccccc2)cn1
 : 2.29, -0.5
- COc1ccc(NC(=O)CN(C)C(=O)CSCC(=O)Nc2ccc(C)cc2)cc1
 : 0.25, -0.76
- CCCCC(CC)C(=O)Nc1ccc(C#N)cc1 (stereo not given)
 : 0.36, -0.92
- CCN(CC)CCOC(=O)c1ccc(N/C=C(/C#N)c2nc(-c3cc4ccccc4oc3=O)cs2)cc1
 : 0.85, 0.01
- CCCCn1c(SCC(=O)N2CCCC2)nc2c1c(=O)n(C)c(=O)n2C
 : 0.3, -1.1
- COC(=O)c1ccc(-c2ccc(Cl)cc2)nc1C
 : 0.88, 0.01
- COc1ccc(C)cc1NC(=O)c1cc2c(CO)cnc(C)c2oc1=N
 : 1.23, -0.26
- O=C(CCc1ccccc1)NNC(=S)NCc1ccc(Cl)cc1
 : 2.78, 0.35
- CCOc1ccc(N(CC(=O)NCc2ccco2)S(C)(=O)=O)cc1
 : 0.55, 0.39
- COc1ccc(CNCc2cccc3ccccc23)cc1
 : 1.42, 0.53
- CCOc1ccc(CCNC(=O)CS(=O)Cc2nc(-c3ccc(OC)cc3)oc2C)cc1OCC (stereo not given)
 : 0.35, 0.7
- COc1ccc(-c2cc(C(=O)Nc3ccc(S(=O)(=O)Nc4onc(C)c4C)cc3)c3ccccc3n2)cc1
 : 0.01, -0.95
- Cc1ccc(S(=O)(=O)N2CCC(C(=O)NCCN3CCCCCC3)CC2)cc1
 : 0.92, -0.56
- CC(C)(C)c1csc(CS(=O)(=O)c2ccccn2)n1
 : 0.21, 0.06
- O=C(O)CCCCCN1C(=O)/C(=C/c2ccncc2)SC1=S
 : 0.79, 0.51
- C[C@@H]1CN(Cc2nc(-c3cccs3)no2)C[C@H](C)O1
 : 0.29, 0.26
- O=c1[nH]nc(Cc2ccc(Cl)cc2Cl)c2ccccc12
 : 0.55, -1.56
- COc1ccc(/C(C)=N/NC(=O)CNC(=O)c2cccnc2)c(OC)c1
 : 0.03, -0.69

# Other structures follow.
# Values in the order: KCNQ2 pot, KCNQ2 pot baseline
- COc1cccc(NC(=O)N2CCCC2C(=O)Nc2cc(C)ccc2OC)c1 (stereo not given)
 : 0.04, 0.45
- CNC(=S)NNC(=O)c1cccs1
 : 0.04, -3.23
- Cc1csc2c(N3CCN(C(=S)Nc4ccc(F)cc4F)CC3)ncnc12
 : 3.62, -2.04
- CC(C)=C1C2CC2C2C(C(=O)O)C12 (stereo not given)
 : 0.8, -1.58
- Cc1nn(Cc2ccc([N+](=O)[O-])cc2)c(=O)n1-c1cccc(Cl)c1
 : 0.55, 0.28
- COc1ccc(NC(=S)NC2CC3CCC2C3)c(OC)c1 (stereo not given)
 : 1.61, -0.35
- CC(CCc1ccco1)NC(=O)Cn1ncc2c(=O)oc3ccccc3c21 (stereo not given)
 : 1.29, 1.96
- O=C(Nc1cccnc1)c1cnn2cccnc12
 : 0.81, 0.6
- Cn1c(SCc2ccccc2Cl)nc2c1c(=O)[nH]c(=O)n2C
 : 0.38, 1.36
- CN(C)C(=O)CSc1nnc(-c2cccnc2)n1-c1ccccc1
 : 0.72, -0.64
- CN1CCc2c(sc3nc(SCC(=O)N4CCOCC4)nc(N)c23)C1
 : 0.17, -0.18
- O=C1C(Cc2ccccc2)NC(=S)N1c1ccccc1 (stereo not given)
 : 1.01, -0.07
- CCc1c(C)c2ccc(OCC(=O)OC)cc2oc1=O
 : 2.28, -0.33
- COc1cc(/C=C2/SC(=S)NC2=O)ccc1OS(=O)(=O)c1ccc(C)cc1
 : 39.5*, 1.4*
- CC(=O)Nc1nn(C)c2nc3cc(C)ccc3cc12
 : 1.73, 0.25
- CCc1nnc(N/N=C/c2ccccc2F)n1N
 : 0.43, -1.02
- O=C(CSc1nnc(-c2ccccc2Br)o1)Nc1cccc2ccccc12
 : 0.09, 1.17
- CCCn1c(N)c(C(=O)CSc2nc3ccccc3c(=O)n2-c2ccc(OC)cc2)c(=O)[nH]c1=O
 : 0.19, 0.42
- COc1ccccc1NC(=O)Nc1ccc(C(=O)N2CCCCC2)cc1
 : 0.39, -0.55
- CCn1c(SCC(=O)Nc2ccc(S(N)(=O)=O)cc2)nnc1-c1ccccc1OC
 : 0.43, 1.13
- COC(=O)COc1cccc(NC(=O)c2ccc(C)cc2)c1
 : 1.4, -0.04
- CC(=O)Oc1ccc2c(C)c(CC(=O)N3CCN(C(=O)C4COc5ccccc5O4)CC3)c(=O)oc2c1C (stereo not given)
 : 0.21, 0.15
- NC(=O)CSc1nnc2n(N)c(=O)c3ccccc3n12
 : 0.05, 1.35

# Screening results: PubChem, Johns Hopkins Ion Channel Center
